Screens deposited in PubChem by several laboratories.
Mtb hypoxia inh: PubChem AID 1159583; M. tuberculosis hypoxia-regulated fluorescent reporter, fluorescence; fluorescence inhibition, % (no concentration beside the values); 300,000 compounds, 0.1% hits;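 active = 35 to 45% if threefold the growth effect, above 45% if 1.5-fold the growth effect; inactive = the rest, general growth blockers included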;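 also: wells of about 50 µL received 100 nL stock; 0% = vehicle wells and 100% = reference inhibitor wells; whole bacteria with a GFP reporter of the hypoxia response; strong numbers were not always called active; many hits fall short of the cut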
BJeLR lethal: MLPCN primary cell-based screen for lethality selective to Ras in HRASV12 cells | BJeLR (HRASV12) viability, CellTiter-Glo ATP luminescence, 48 h; reference of the scale not given here | inhibition, % (test concentration not listed) | 300,000 compounds, 0.17% hits;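 active = replicate mean above 50%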;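 also: 50 nL library stock added to about 25 µL; numbers are from one replicate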
Autofluor counter: compound fluorescence in toxin protease inhibitor counterscreen; AID 624483; 360,000 compounds, 3.1% hits; fluorescence intensity (concentration not given with the values); compound autofluorescence counterscreen, microsphere flow cytometry; hits give high values;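 active = at least 3 SD above the mean of all compounds, about 16000 in these data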;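 also: 100 nL of 1 mM stock went into each well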
PrP 5UTR inh: inhibition of PrP 5' UTR reporter expression; inhibition, % (concentration not given with the values); 340,000 compounds, 0.35% hits; cell-based PrP 5' UTR mRNA reporter, plate reader;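 active = every replicate at 50% or more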;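 also: 0 = median of the neutral control wells; tested in H4 reporter cells; numbers are from one replicate; inactives centre near -14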
ugtP null kill: growth inhibition of ugtP-null S. aureus, primary screen, RN4220 ugtP deletion, OD600; 16 h; some inactives read as strong as hits; growth inhibition, % (no concentration beside the values); 330,000 compounds, 0.54% hits; AID 1259309, 2017;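 active = z-score under -3 and OD600 up to 0.15 on both plates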;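 also: plate controls were untreated wells for no effect and antibiotic for full effect; wells of about 80 µL received 100 nL stock; the first replicate is given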
RN4220 kill: growth inhibition of S. aureus RN4220, primary screen, OD600; 16 h; inhibition, % (test concentration not listed); 330,000 compounds, 0.33% hits;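 active = z-score of -3 or lower and OD600 up to 0.18 on both plates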;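 also: plate controls were untreated cells for no effect and reference antibiotic for full effect; stock transfer was 100 nL into about 80 µL; one replicate is shown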
Mtb hypoxia inh growth: also measured in Mtb hypoxia inh; calls as there; growth inhibition, %; measured here: M. tuberculosis growth (absorbance);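 0% = vehicle and 100% = reference antibiotic; read after six days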
* = called active by the depositor; · = not tested or not shown; & = joins results of further samples.

SMILES	Mtb hypoxia inh	Mtb hypoxia inh growth	BJeLR lethal	Autofluor counter	PrP 5UTR inh	ugtP null kill	RN4220 kill
COc1ccc(N(CC(=O)NCc2ccc(C)cc2)S(=O)(=O)c2c(C)noc2C)cc1	-4	3	0	5142	-8	7	4.9
Cc1onc(-c2ccccc2)c1C(=O)/C=C/N(C)C	5	0	-10	3748	-20	-1	0.9
COc1cccc(C(=O)CSc2nnc(-c3cc(OC)c(OC)c(OC)c3)o2)c1	-1	12	-5	8311	-30	-9	15
C=CCC(CC(=O)NCCO)C(=O)NC(COC(=O)C(CC=C)Cc1ccc(F)cc1)Cc1c[nH]c2ccccc12 (centres undefined)	15&10	4&4	·	·	·	0&5	6.9&3.1
O=S(=O)(c1ccccc1)N1CCn2c(nc3ccccc32)C1	8	4	-10	6472	-13	-6	-13
CC1CC(C)CN(S(=O)(=O)c2ccc(NC(=O)CN3CCCCCC3)cc2)C1 (centres undefined)	-9	-11	·	5717	-7	0	1.7
COc1ccc(S(=O)(=O)ON=C2CCSc3ccc(C)cc32)cc1	6	3	·	·	·	22	8.2
COc1ccc2[nH]c3c(=O)n(Cc4ccco4)cnc3c2c1	·	·	10	2989	-27	7	1.1
CSCCC1COC(c2cccs2)=N1 (centres undefined)	5	4	0	3874	-26	8	17
COc1cccc(-c2nc(NCc3ccco3)c3ccccc3n2)c1O	·	·	-1	4522	-10	-2	2.2
COc1ccc(S(=O)(=O)N(C)c2ccc(C(=O)N3CCCC3)cc2)cc1OC	5	-1	6	3874	-20	-4	-2.5
Cc1ccc(CN(C)C(=O)CCNS(=O)(=O)c2ccccc2)o1	16	5	·	5516	-7	7	6.3
Cc1ccc(C(=O)N(Cc2ccccc2)C(C)(C)C)cc1C	5	10	0	2488	-27	35	3.3
CCCCc1ccc(-c2csc(/C(C#N)=C/c3ccc(C)o3)n2)cc1	2	4	-15	5316	-14	28	-1.6
CCc1nnc(NS(=O)(=O)c2ccc(NC(=O)c3cc4ccccc4oc3=O)cc2)s1	16	15	-3	·	·	-22	-3.4
Cc1ccccc1C(=O)NC[C@@H]1CCCN2CCCC[C@H]12	14	9	2	4252	-10	-4	-1.9
COC(=O)c1ccc(C(=O)OC)c(NC(=O)C(C)C)c1	11	5	-2	4189	-6	-2	8.6
CC(=O)C1=C(O)C(=O)N(CCO)C1c1ccccc1 (centres undefined)	7	3	0	3356	-7	5	2.6
CCC(=O)c1cc(F)c(N2CCN(CC)CC2)cc1C	·	·	2	3061	-21	5	-2.4
O=C(Nc1cccc(Cl)c1)N1CCN(c2ncccn2)CC1	4	1	17	4286	-25	6	2.0
CCOC(=O)c1sc2nc(C)nc(N3CCCCC3C)c2c1C (centres undefined)	-16	-5	-10	4254	-74	21	-0.7
Cn1cc(CN2CCc3c([nH]c4ccccc34)C2C2CCCCC2)cn1 (centres undefined)	8	6	-15	5261	-27	8	2.7
Nc1c(C(=O)Nc2ccc3c(c2)OCCO3)nnn1Cc1ccc(Cl)cc1	7	4	10	4996	-137	-5	2.1
CCc1ccc(NS(=O)(=O)c2c(C)noc2C)cc1	8	-5	-1	5635	-6	6	-0.3
CN(C)CCc1c[nH]c2ccc(CC3COC(=O)N3)cc12 (centres undefined)	3	3	·	·	·	0	2.1
O=C1C=C(c2ccc(F)cc2OCc2ccccc2)CC(c2ccc(Cl)cc2)C1 (centres undefined)	15	8	·	·	·	-3	-2.8
CCN1C(=O)c2ccccc2S(=O)c2ccc(C(=O)NCc3ccc(OC)cc3)cc21 (centres undefined)	3	-6	-2	5812	-9	3	2.3
COCCN(C(=O)c1ccc(-c2ccc(Cl)cc2)o1)c1c(N)n(CC(C)C)c(=O)[nH]c1=O	5	-2	·	4117	-12	-3	4.2
CCn1nccc1C(=O)Nc1nc2ccccc2n1CCN1CCCCC1	·	·	-4	3671	-18	10	-0.9
COCc1ccc(CN2CCCC(CCC(=O)NCc3cccc(OC)c3)C2)o1 (centres undefined)	0	0	-6	3510	-23	5	3.0
CC(=O)c1cccc(NC(=O)C2CCN(S(C)(=O)=O)CC2)c1	6	17	11	5807	-51	3	3.8
c1ccc(N2OCC3Cn4c(nc5ccccc54)C32)cc1 (centres undefined)	-1	1	2	3748	-7	2	3.8
CC(C)Oc1ccc(C2CNC(=O)C2)cc1 (centres undefined)	-1	-3	-15	4285	-9	0	1.5
CCOC(=O)CSc1nc2cc3c(cc2cc1C#N)OCO3	·	·	·	4152	-78	-6	1.8
Clc1ccccc1OCCn1cnc2ccccc21	9	4	0	8168	-47	4	8.6
COc1ccc(NC2CCCN(C(=O)CCc3scnc3C)C2)cc1 (centres undefined)	0	-5	-2	6419	-9	3	1.2
O=C(COC(=O)c1ccc([N+](=O)[O-])o1)NC1CCCC1	·	·	·	3923	-26	9	7.8
CCCCc1cc(=O)oc2cc(OCC(=O)Nc3cccnc3)c(Cl)cc12	4	2	-3	5125	-8	3	-0.2
CCOCCCNC(=S)NCCNc1nc2ccc(C)cc2cc1C#N	1	4	-3	2068	-2	-4	6.6
CCOC(=O)c1ccc(NC(=O)CSc2nnc(COc3ccccc3)n2C)cc1	·	·	-3	5258	-13	-12	3.5
CCN1CCN(S(=O)(=O)c2c(C)[nH]c(C)c2C(=O)N2CCCCC2)CC1	2	4	3	5575	-9	1	0.3
O=C(/C=C/c1ccc2ccccc2n1)N1CCN(c2ccccc2)CC1	7	2	-5	4030	-15	-3	0.9
O=C(Nc1ccc(Br)cc1)c1ccccc1Br	23	4	8	·	-46	6	3.4
CC(C)(C)c1ccc(-c2cnco2)cc1	-13	-10	7	3948	-1	10	1.3
COc1cccc(CN2C(=O)c3cccc(N)c3C2=O)c1	·	·	12	1999	-3	·	·

Entries of single compounds, quoted from the list. Screens in order: Mtb hypoxia inh | Mtb hypoxia inh growth | BJeLR lethal | Autofluor counter | PrP 5UTR inh | ugtP null kill | RN4220 kill
Record of `O=C(COC(=O)c1ccc([N+](=O)[O-])o1)NC1CCCC1` = · | · | · | 3923 | -26 | 9 | 7.8
Record of `CC(C)(C)c1ccc(-c2cnco2)cc1` = -13 | -10 | 7 | 3948 | -1 | 10 | 1.3
Record of `CCN1CCN(S(=O)(=O)c2c(C)[nH]c(C)c2C(=O)N2CCCCC2)CC1` = 2 | 4 | 3 | 5575 | -9 | 1 | 0.3
Record of `CCOCCCNC(=S)NCCNc1nc2ccc(C)cc2cc1C#N` = 1 | 4 | -3 | 2068 | -2 | -4 | 6.6
Record of `O=C(Nc1ccc(Br)cc1)c1ccccc1Br` = 23 | 4 | 8 | · | -46 | 6 | 3.4

Next section:
SMILES	Mtb hypoxia inh	Mtb hypoxia inh growth	BJeLR lethal	Autofluor counter	PrP 5UTR inh	ugtP null kill	RN4220 kill
Cc1nnc2n(Cc3ccccc3)c(=O)c3c4c(sc3n12)COC(C)(C)C4	·	·	3	4394	-4	0	-1.4
O=C(CSc1nnc2scc(-c3ccccc3)n12)Nc1ccc2c(c1)OCCO2	7	5	-15	16931*	-17	12	27
Cc1ccc2[nH]c(=O)c(CN(CCCN(C)C)C(=O)Nc3ccc(Cl)cc3)cc2c1	11	9	-1	12253	-5	2	0.4
Nn1c(SCC(=O)NNC(=O)c2ccccc2)nnc1-c1ccccc1F	5	2	3	6195	-22	-2	4.3
CCCCC(=O)Nc1ccc(Br)cn1	·	·	-3	4120	-18	8	0.8
CCCOc1ccc(N2C(=O)CC(S/C(N)=N/N=C(C)c3cccs3)C2=O)cc1 (centres undefined)	1	1	·	·	·	-13	0.8
CC(Cn1cnc([N+](=O)[O-])n1)=NNC(=O)COc1ccccc1Cl	1	25	·	·	·	19	2.7
N#CC(=NO)c1nc(-c2ccc(F)cc2)cs1	10	4	·	·	·	11	26
Nc1nc(-c2ccccc2)cc(C(F)(F)F)n1	5	2	-9	8102	2	12	12
CC(=O)c1cccc(NC(=O)CCC(=O)c2ccc(F)cc2)c1	5	0	3	3019	-19	13	4.3
O=S(=O)(Nc1ccc(-c2ccc3nncn3n2)cc1)c1ccc(Cl)s1	11	6	7	5173	5	5	9.9
COc1ccc(C2C3=C(CCCC3=O)Nc3c(-c4ccccc4)c(C)nn32)cc1 (centres undefined)	-10	9	-7	22999*	-11	-6	-3.6
COc1cc2c(cc1OC)N1C(=O)CC(OCC(=O)O)C3C4CC5(CCN5C(=O)C4=O)C2C31 (centres undefined)	6	11	0	4802	-8	0	5.4
COCCNCCOc1ccc(C)cc1[N+](=O)[O-]	16	2	-2	2592	-31	9	7.9
Cc1cccc(NS(=O)(=O)c2ccc(Br)s2)n1	8	7	-5	19822*	-7	1	3.9
Cc1nnc2ccc(-c3ccc(NS(=O)(=O)c4ccccc4F)cc3)nn12	17	6	7	5893	19	19	8.6
O=C(COC(=O)Cn1[nH]c(=O)c2ccccc2c1=O)Nc1ccc2c(c1)OCO2	4	5	5	3959	-20	1	3.6
O=C(NC(=S)Nc1ccccc1C(=O)O)c1ccc(-c2ccc(Br)cc2)o1	·	·	-3	5565	-18	·	·
Fc1ccc2nncc(SCc3ccccc3Cl)c2c1	4	22	·	4217	0	-22	3.5
CCOC(=O)C1(CCOc2ccccc2)CCN(Cc2ccc(C)o2)CC1	0	0	2	4653	-6	1	4.7
COc1cc(NC(=S)Nc2ccc3c(c2)OCCO3)cc(OC)c1OC	-9	9	-2	6809	-29	4	5.2
CC(C)CN1CCN(Cc2cnc(N3CCOCC3)s2)CC1CCO (centres undefined)	0	-3	4	4188	-24	2	4.0
Cc1ccc2c(c1)N(C(C)C(=O)N1CCC3(CC1)OCCO3)C(=O)CO2 (centres undefined)	3	10	-5	5671	-9	10	2.4
COC(=O)[C@@H]1[C@@H](C(=O)OC)C2(c3ccccc3-c3ccccc32)N(c2ccc(Cl)cc2)N1C#N	3	5	33	3599	-1	31	25
CCCCn1c(O)c(C(CC)=NCc2ccco2)c(=O)[nH]c1=O	3	12	0	22221*	-6	0	2.2
Cc1ccc(CNC(=O)C2CCC(=O)N2Cc2ccccc2Cl)cc1 (centres undefined)	-4	0	-2	3785	-6	7	2.7
NC(=O)C1CCN(C(=O)c2cc3c(s2)CCCCC3)CC1	9	2	·	3495	-35	4	3.4
O=C1CN(C(=O)c2cc3ccccc3oc2=O)C(c2ccc(F)cc2)c2cc(Br)ccc2N1 (centres undefined)	0	6	2	5642	-3	10	-1.8
COc1ccc(/C=N/N2CCN(Cc3ccccc3)CC2)cc1	·	·	4	4037	-10	·	·
COc1ccc(/C=C2\Oc3cc(OCC(=O)N4CCC[C@H]4C(=O)O)ccc3C2=O)c(OC)c1OC	·	·	-3	4160	-8	7	-0.3
Oc1c(C(c2ccc(Cl)cc2)N2CCCC2)cc(Cl)c2cccnc12 (centres undefined)	3	3	-11	4138	-47	100*	100*
Cc1cc(C(=O)CS(=O)(=O)c2ccc(F)cc2)cc(C)c1O	10	0	-14	3210	-16	0	1.6
CC(C)c1ccccc1NC(=O)Cn1c(/C=C/c2ccccc2)nc2ccccc21	5	0	15	·	·	7	5.5
CCOC(=O)C1C(=O)Nc2nc3ccccc3n2C1C(C)C (centres undefined)	-4	7	-5	8285	-35	3	6.3
CC(=O)OC(C(=O)NC1CCCCC1)c1ccccc1F (centres undefined)	13	9	4	3236	-19	11	4.2
O=C(CCc1nnc2n(Cc3ccc(Cl)cc3)c(=O)c3ccccc3n12)N1CCN(c2ccccn2)CC1	2	-6	-10	5598	-5	-5	2.1
CCNC(=S)NN=Cc1cccs1	·	·	·	·	·	2	-1.4
COC(=O)c1ccccc1S(=O)(=O)N1CCC(C(=O)N(C)CCOc2ccccc2)CC1	-5	-1	-1	5882	-10	3	1.6
CCOC(=O)c1cnn(-c2ccccc2)c1-n1cccc1C(=O)C(=O)N(CC)CC	0	5	-2	4423	-51	11	4.3
CC(C)(CNC(=O)c1cccc(NS(=O)(=O)c2ccc(Br)cc2)c1)N1CCOCC1	3	7	16	5438	4	-1	3.5
CCC(=O)OC1(C(=O)CCl)C(C)CC2C3CCC4=CC(=O)C=C[C@]4(C)[C@@]3(F)C(O)C[C@@]21C (some centres undefined)	-5	-2	·	·	·	10	5.0
Cc1csc(NC(=O)C2CC(=O)N(Cc3ccco3)C2)n1 (centres undefined)	6	9	2	3884	-10	4	4.2
Cc1ccc(N2C(=O)CS/C2=C(\C(Cl)=C(Cl)Cl)[N+](=O)[O-])cc1	10	-4	4	11452	-27	4	3.8

Compounds were not picked by outcome (roughly 4% active in at least one column).
